High-throughput results from PubChem BioAssay.
Sa growth inh: S. aureus growth inhibition at 42 and 30 °C, primary screen, LtaS inhibitor project, RN4220, two temperatures. OD600, 20 h, 42 °C; active compounds read low. relative growth, % (test concentration not listed). 170,000 compounds, 0.53% hits. AID 720641, 2013;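 active means growth at 42 °C up to 50% and 20 or more points under that at 30 °C, or under 10% at both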;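 further: 300 nL library stock went into each well; scaled to the means of positive and negative controls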
HCMV NEC inh: inhibitors of HCMV UL50-UL53 interaction, biochemical, HTRF; AID 1918969, 2023; inhibition, % (concentration not given with the values); normalized percent inhibition; 190,000 compounds, 0.15% hits; HCMV UL50-UL53 nuclear egress complex (human cytomegalovirus);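 active means both replicates at 50% or more, plus weaker picks with an unusually low signal ratio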;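 further: stock transfer was 100 nL into about 20 µL; 0% = negative control wells and 100% = wells with untagged competitor protein; inactives centre near -12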
GIV Gai3 FP: inhibitors of GIV peptide binding to Galpha-i3, primary screen, biochemical, fluorescence polarization, FITC-GIV GBA peptide, rat Galphai3; 90 min; active compounds read low; scaled: aluminum fluoride 0%, vehicle 100%; percent of control (FP), % (concentration not given with the values); Guanine nucleotide-binding protein G(i) subunit alpha-3 (Rattus norvegicus), P08753; 210,000 compounds, 0.42% hits;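 active means replicate mean at 85% of control or lower, very high polarization wells dropped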;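 further: wells of about 15 µL received 100 nL stock; the first replicate is given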
Target sequence (P08753 whole entry, looked up): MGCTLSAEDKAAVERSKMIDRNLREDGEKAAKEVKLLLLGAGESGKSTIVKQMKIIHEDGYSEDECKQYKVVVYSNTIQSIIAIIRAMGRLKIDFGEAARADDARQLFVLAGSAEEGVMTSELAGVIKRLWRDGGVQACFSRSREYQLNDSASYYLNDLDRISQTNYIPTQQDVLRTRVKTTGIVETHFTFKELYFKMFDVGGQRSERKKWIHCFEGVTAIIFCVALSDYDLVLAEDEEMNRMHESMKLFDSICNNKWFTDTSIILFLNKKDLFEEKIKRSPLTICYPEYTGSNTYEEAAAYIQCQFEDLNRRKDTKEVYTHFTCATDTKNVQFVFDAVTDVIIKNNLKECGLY
Sa growth inh second temp: further read-out of Sa growth inh, marked with its call; relative growth, %; measured here: growth at 30 °C;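 optical density after 20 h as mean of two plates; 100% = untreated growth and lower means inhibition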
Starred values were filed as active, the others as inactive. This is a random part of the collection; overall some 0.82% were active at least once.

Results for COc1ccc(/C=C/C(=O)N[C@@H](C)C(=O)O)cc1 ?
Sa growth inh: 101; HCMV NEC inh: -38; Sa growth inh second temp: 95

What do the screens show for `Cc1ccc(OCCn2ncc3ccccc3c2=O)c(C)c1`?
Sa growth inh: 104; GIV Gai3 FP: 102; Sa growth inh second temp: 88

How did Cc1occc1-c1nnc2sc(-c3cc(CC(C)C)[nH]n3)nn12 do in these assays?
HCMV NEC inh: -15; GIV Gai3 FP: 105

Results for COc1ccc(C2CC(c3ccc(NS(C)(=O)=O)cc3)=NN2C(=O)CCC(=O)O)cc1 (configuration not stated) ?
HCMV NEC inh: -40; GIV Gai3 FP: 106

How did Nc1nc(-c2ccccc2)c(NC(=O)c2ccccc2Cl)s1 do in these assays?
Sa growth inh: 127; HCMV NEC inh: -51; Sa growth inh second temp: 83

How did CCOc1ccc(CCNC(=O)CCSCc2cccc(Cl)c2)cc1OCC do in these assays?
Sa growth inh: 82; GIV Gai3 FP: 101; Sa growth inh second temp: 76

Results for CC(CN1CCN(Cc2ccccc2)CC1)OC(=O)c1ccco1 (configuration not stated) ?
Sa growth inh: 102; HCMV NEC inh: -15; GIV Gai3 FP: 97; Sa growth inh second temp: 86

How did O=C(OCc1nc(-c2ccccc2)oc1COC(=O)c1ccco1)c1ccco1 do in these assays?
Sa growth inh: 102; HCMV NEC inh: 6; GIV Gai3 FP: 105; Sa growth inh second temp: 72

Results for Cc1nn(-c2ccccc2)nc1CNS(=O)(=O)c1cccc2ccccc12 ?
Sa growth inh: 97; HCMV NEC inh: 1; GIV Gai3 FP: 104; Sa growth inh second temp: 109

How did CCOc1ccc2nc(NCCCNC(=O)C3CCCO3)c(C#N)cc2c1 (configuration not stated) do in these assays?
Sa growth inh: 103; HCMV NEC inh: -66; GIV Gai3 FP: 94; Sa growth inh second temp: 67

How did C[C@H](NC(N)=O)C(=O)Nc1ccccc1 do in these assays?
Sa growth inh: 105; HCMV NEC inh: -16; Sa growth inh second temp: 92

Results for CCCc1c(O)nc(SCC(=O)N2CCCCC2)[nH]c1=O ?
Sa growth inh: 77; HCMV NEC inh: -15; GIV Gai3 FP: 101; Sa growth inh second temp: 98

How did CCc1cccc(CC)c1NC(=O)Cn1nc(C(F)(F)F)nc1N do in these assays?
Sa growth inh: 92; HCMV NEC inh: -21; Sa growth inh second temp: 90

What do the screens show for `O=C(O)CCSC1CC(=O)N(c2ccc(F)cc2)C1=O` (configuration not stated)?
Sa growth inh: 120; GIV Gai3 FP: 96; Sa growth inh second temp: 87

What do the screens show for `Cc1c(N2C(=O)c3ccccc3C2(O)c2ccccc2)c(=O)n(-c2ccccc2)n1C` (configuration not stated)?
Sa growth inh: 103; HCMV NEC inh: -6; GIV Gai3 FP: 104; Sa growth inh second temp: 102

What do the screens show for `CCOC(=O)c1c(SC)nc2ccc(Cl)cc2c1N1CCN(C)CC1`?
Sa growth inh: 95; HCMV NEC inh: -31; GIV Gai3 FP: 110; Sa growth inh second temp: 83

What do the screens show for `Cc1ccc(NC(=O)Nc2ccc(C(N)=O)cc2)cc1`?
Sa growth inh: 113; HCMV NEC inh: -21; GIV Gai3 FP: 103; Sa growth inh second temp: 111

Results for Cc1cc2nn(-c3ccccc3)nc2cc1NC(=O)C(C)C ?
Sa growth inh: 92; HCMV NEC inh: -11; GIV Gai3 FP: 101; Sa growth inh second temp: 95

Results for CCOc1cc(C2C(C(=O)Nc3ccccc3)=C(C)Nc3ncnn32)ccc1OC(=O)c1ccccc1 (configuration not stated) ?
HCMV NEC inh: 10; GIV Gai3 FP: 102

How did CSC1=NC=C(C#N)C2=NC(c3c(F)cccc3Cl)NN12 (configuration not stated) do in these assays?
Sa growth inh: 97; HCMV NEC inh: -25; GIV Gai3 FP: 104; Sa growth inh second temp: 90

Results for Cc1cc(C)nc(/N=C(/N)N2CCCCC2)n1 ?
Sa growth inh: 95; HCMV NEC inh: 10; GIV Gai3 FP: 98; Sa growth inh second temp: 119

What do the screens show for `COc1ccc(C(=O)NCC(=O)OCc2nc3ccccc3c(=O)n2CC#N)cc1OC`?
Sa growth inh: 90; HCMV NEC inh: -1; Sa growth inh second temp: 92

Results for COc1ccc(OC)c(CNC(=O)c2cc3c(s2)-c2c(C)nn(-c4ccccc4)c2CC3)c1 ?
HCMV NEC inh: 1; GIV Gai3 FP: 107

How did Cc1cc(N)n(-c2ccc(C)c(C)c2)n1 do in these assays?
HCMV NEC inh: -31; GIV Gai3 FP: 103

How did CC(=O)c1ccc(S(=O)(=O)N2CCC(Oc3ccc(-n4cnnn4)cc3)CC2)cc1 do in these assays?
Sa growth inh: 86; HCMV NEC inh: -32; GIV Gai3 FP: 94; Sa growth inh second temp: 87

Results for CC1=C/C(=N/NC(=O)C2CC2)CC1 ?
Sa growth inh: 105; HCMV NEC inh: -23; Sa growth inh second temp: 89

What do the screens show for `Fc1ccc(-n2c(C34CC5CC(CC(C5)C3)C4)n[nH]c2=S)cc1`?
Sa growth inh: 88; GIV Gai3 FP: 101; Sa growth inh second temp: 95

Results for COc1ccc(C(=O)Nc2nn3c(CC(C)C)nnc3s2)cc1 ?
Sa growth inh: 82; GIV Gai3 FP: 99; Sa growth inh second temp: 79

How did Cc1ccccc1Nc1ccc2noc3c2c1C(=O)c1ccccc1-3 do in these assays?
Sa growth inh: 114; HCMV NEC inh: -63; GIV Gai3 FP: 128; Sa growth inh second temp: 79

Results for COc1ccc(N2CCN(C(=O)C(C)n3nc(C)c4sc5ccccc5c4c3=O)CC2)cc1 (configuration not stated) ?
Sa growth inh: 107; HCMV NEC inh: 7; GIV Gai3 FP: 100; Sa growth inh second temp: 97

2 compounds drawn at random from the list so far:
How did CC(=O)c1ccc(S(=O)(=O)N2CCC(Oc3ccc(-n4cnnn4)cc3)CC2)cc1 do in these assays?
Sa growth inh: 86; HCMV NEC inh: -32; GIV Gai3 FP: 94; Sa growth inh second temp: 87

What do the screens show for `COc1ccc(C(=O)NCC(=O)OCc2nc3ccccc3c(=O)n2CC#N)cc1OC`?
Sa growth inh: 90; HCMV NEC inh: -1; Sa growth inh second temp: 92

Next section
Results for CN(CC(=O)N1CCc2ccccc21)S(=O)(=O)c1ccc2c(c1)CCCC(=O)N2 ?
Sa growth inh: 104; HCMV NEC inh: 4; GIV Gai3 FP: 102; Sa growth inh second temp: 84

How did CCOc1ccc(CNC(=O)CSc2c3c(nc4cc(Cl)ccc24)CCCC3)cc1 do in these assays?
Sa growth inh: 107; HCMV NEC inh: -16; GIV Gai3 FP: 110; Sa growth inh second temp: 73

How did CCOc1ccc(N2C(=O)CN(Cc3ccccc3OC)[C@H]3CS(=O)(=O)C[C@H]32)cc1 do in these assays?
HCMV NEC inh: -28; GIV Gai3 FP: 106

How did CCCc1c(C(=O)OCC)nnc2c(-c3ccc(OC)cc3)c(C)nn12 do in these assays?
HCMV NEC inh: -134; GIV Gai3 FP: 100

How did Cn1c(O)c(N=NC(=O)CCN2CCN(Cc3ccc4c(c3)OCO4)CC2)c2ccccc21 do in these assays?
Sa growth inh: 103; HCMV NEC inh: -64; Sa growth inh second temp: 87

How did CCc1[nH]nc2c1C(c1cc(OC)c(OC(C)=O)c(OC)c1)C(C#N)=C(N)O2 (configuration not stated) do in these assays?
Sa growth inh: 106; HCMV NEC inh: -8; GIV Gai3 FP: 106; Sa growth inh second temp: 96

What do the screens show for `O=C(NCc1ccccc1Cl)C(=O)NCC(c1cccnc1)N1CCc2ccccc2C1` (configuration not stated)?
HCMV NEC inh: -16; GIV Gai3 FP: 104

How did COC(=O)c1ccc(-c2c3c(nc4nc(N)[nH]c(=O)c24)-c2ccccc2C3=O)cc1 do in these assays?
Sa growth inh: 80; HCMV NEC inh: -75; GIV Gai3 FP: 75*; Sa growth inh second temp: 76

How did Cc1cc(=O)oc2cc(OC(=O)c3cc4ccccc4o3)ccc12 do in these assays?
Sa growth inh: 95; HCMV NEC inh: 4; Sa growth inh second temp: 89

How did N#Cc1ccc(-c2cccnc2)n(CC(=O)N2CCOCC2)c1=O do in these assays?
Sa growth inh: 91; HCMV NEC inh: 1; GIV Gai3 FP: 109; Sa growth inh second temp: 79

Structures listed so far that have a cyano group:
How did CCOc1ccc2nc(NCCCNC(=O)C3CCCO3)c(C#N)cc2c1 (configuration not stated) do in these assays?
Sa growth inh: 103; HCMV NEC inh: -66; GIV Gai3 FP: 94; Sa growth inh second temp: 67

How did CSC1=NC=C(C#N)C2=NC(c3c(F)cccc3Cl)NN12 (configuration not stated) do in these assays?
Sa growth inh: 97; HCMV NEC inh: -25; GIV Gai3 FP: 104; Sa growth inh second temp: 90

What do the screens show for `COc1ccc(C(=O)NCC(=O)OCc2nc3ccccc3c(=O)n2CC#N)cc1OC`?
Sa growth inh: 90; HCMV NEC inh: -1; Sa growth inh second temp: 92

How did CCc1[nH]nc2c1C(c1cc(OC)c(OC(C)=O)c(OC)c1)C(C#N)=C(N)O2 (configuration not stated) do in these assays?
Sa growth inh: 106; HCMV NEC inh: -8; GIV Gai3 FP: 106; Sa growth inh second temp: 96

How did N#Cc1ccc(-c2cccnc2)n(CC(=O)N2CCOCC2)c1=O do in these assays?
Sa growth inh: 91; HCMV NEC inh: 1; GIV Gai3 FP: 109; Sa growth inh second temp: 79

Continued.
Results for CC(C)NS(=O)(=O)c1ccc(OCC(=O)NCc2ccco2)cc1 ?
Sa growth inh: 103; HCMV NEC inh: -20; GIV Gai3 FP: 103; Sa growth inh second temp: 77

How did O=C(O)c1cc(Cl)c(Cl)cc1C(=O)Nc1ccc(Oc2ccccc2)cc1 do in these assays?
Sa growth inh: 122; HCMV NEC inh: -2; Sa growth inh second temp: 82

Results for COc1ccc(C2CC(=O)C3=C(C2)Nc2ccccc2NC3c2ccc(Br)s2)cc1 (configuration not stated) ?
HCMV NEC inh: -30; GIV Gai3 FP: 102

How did CCCn1cc(/C=N/O)c(C)n1 do in these assays?
Sa growth inh: 104; HCMV NEC inh: 2; GIV Gai3 FP: 102; Sa growth inh second temp: 96

What do the screens show for `O=C1Nc2ncccc2OC1c1ccccc1` (configuration not stated)?
Sa growth inh: 122; GIV Gai3 FP: 105; Sa growth inh second temp: 85

How did CC(=O)N1CCCC1c1nc2ccccc2n1Cc1ccccc1C (configuration not stated) do in these assays?
Sa growth inh: 117; HCMV NEC inh: -8; GIV Gai3 FP: 105; Sa growth inh second temp: 83

Results for CC1CCCCN1C(=O)COCc1cc(-c2ccc3c(c2)OCO3)on1 (configuration not stated) ?
Sa growth inh: 107; HCMV NEC inh: -9; GIV Gai3 FP: 103; Sa growth inh second temp: 87

Results for Cc1nc(-c2ccc(S(=O)(=O)NCC3CC3)s2)cs1 ?
Sa growth inh: 83; GIV Gai3 FP: 104; Sa growth inh second temp: 76

How did O=C(c1ccccc1)N1CCC(O)C2CCCCC21 (configuration not stated) do in these assays?
Sa growth inh: 106; HCMV NEC inh: -21; GIV Gai3 FP: 99; Sa growth inh second temp: 82

What do the screens show for `Cc1ccc(OCc2nc(-c3ccc(C(=O)N4CCN(c5ccccc5)CC4)cc3)oc2C)cc1`?
Sa growth inh: 78; GIV Gai3 FP: 98; Sa growth inh second temp: 96

What do the screens show for `O=C(NCc1nc2ccccc2n1Cc1ccccc1Cl)c1ccccc1`?
Sa growth inh: 102; HCMV NEC inh: -21; GIV Gai3 FP: 105; Sa growth inh second temp: 81

How did CCc1c(O)nc(SCC(=O)Nc2nnc(SCc3ccccc3)s2)[nH]c1=O do in these assays?
Sa growth inh: 128; HCMV NEC inh: -19; GIV Gai3 FP: 94; Sa growth inh second temp: 83

What do the screens show for `CSc1scc2c1-c1nn(C(=O)c3cccc(C(F)(F)F)c3)cc1CC2`?
Sa growth inh: 113; HCMV NEC inh: 18; GIV Gai3 FP: 104; Sa growth inh second temp: 98

Results for CN(C(=O)C(C)(C)Oc1ccc(Cl)cc1)c1ccccc1 ?
Sa growth inh: 100; HCMV NEC inh: -6; Sa growth inh second temp: 103

What do the screens show for `CCCOc1ccc(C(=O)Nc2ccc(NC(=O)c3cccc(Cl)c3)cc2)cc1`?
Sa growth inh: 102; HCMV NEC inh: -13; GIV Gai3 FP: 105; Sa growth inh second temp: 90

What do the screens show for `O=S(=O)(c1ccccc1)N1CCN(c2ncnc3sccc23)CC1`?
Sa growth inh: 107; HCMV NEC inh: 0; GIV Gai3 FP: 105; Sa growth inh second temp: 74

How did Cn1c(=NC(=O)C2Cc3ccccc3CN2C(=O)c2ccco2)sc2ccccc21 (configuration not stated) do in these assays?
Sa growth inh: 102; HCMV NEC inh: -7; Sa growth inh second temp: 91

How did FC(F)(F)c1ccc(NCc2ccco2)nc1 do in these assays?
Sa growth inh: 97; HCMV NEC inh: -16; GIV Gai3 FP: 98; Sa growth inh second temp: 91

How did COc1cc(OC)cc(C(=O)Nc2ccc3nc4c(c(Nc5ccc(OC)c(OC)c5)c3c2)CCCC4)c1 do in these assays?
Sa growth inh: 93; HCMV NEC inh: -3; GIV Gai3 FP: 108; Sa growth inh second temp: 98

Results for CC(C)c1ccc2c(c1)NC(c1ccc(F)cc1)=NC(c1cccs1)=N2 ?
Sa growth inh: 92; HCMV NEC inh: -13; GIV Gai3 FP: 103; Sa growth inh second temp: 87

What do the screens show for `NC(=O)CSc1nc2ccc(NC(=O)COc3ccccc3Cl)cc2s1`?
Sa growth inh: 104; HCMV NEC inh: -24; GIV Gai3 FP: 98; Sa growth inh second temp: 72
